Screening data: PubChem BioAssay, National Center for Advancing Translational Sciences (NCATS)
Lassa entry inh – qHTS for Inhibitors of binding or entry into cells for Lassa Virus. Lassa virus pseudotype entry inhibition, cell reporter; control for the full effect not named in the record. Potency, µM (highest dose often 37.9 µM), for the others: at the highest dose activity change, negative = inhibition, actives largely listed as inhibitors. 1.2% of 300,000 active; active means well fitted inhibition curve with a large enough effect; inconclusive means small, poorly fitted or top-dose-only effect, or effect the other way; inactive means flat fitted curve, though single readings scatter; tested in HEK293 cells; also: % is scaled to controls: 0 for no effect and ±100 for the full control effect; nearly all actives have a fitted effect of over 50% in size; luciferase read-out
Cruzain Triton – qHTS Assay for Promiscuous and Specific Inhibitors of Cruzain (with detergent); purified cruzain, Z-FR-AMC fluorescence, 0.01% Triton; Cruzipain (Trypanosoma cruzi), P25779; 0.43% of 200,000 active; Potency, µM, for the others: max response, negative = inhibition, hits mostly inhibitors; AID 1478, 2009; active = well fitted curve in the direction sought with a large enough effect; inconclusive = small, poorly fitted or top-dose-only effect, or another doubt; inactive = no such curve, though single readings can be large; an effect the other way counts as inactive or inconclusive;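 also: plate controls were neutral wells for no effect and buffer without enzyme for full effect; nearly all actives have a fitted effect of over 40% in size; top concentration of the series not given in the record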
Target sequence (P25779 123-467 limits assumed): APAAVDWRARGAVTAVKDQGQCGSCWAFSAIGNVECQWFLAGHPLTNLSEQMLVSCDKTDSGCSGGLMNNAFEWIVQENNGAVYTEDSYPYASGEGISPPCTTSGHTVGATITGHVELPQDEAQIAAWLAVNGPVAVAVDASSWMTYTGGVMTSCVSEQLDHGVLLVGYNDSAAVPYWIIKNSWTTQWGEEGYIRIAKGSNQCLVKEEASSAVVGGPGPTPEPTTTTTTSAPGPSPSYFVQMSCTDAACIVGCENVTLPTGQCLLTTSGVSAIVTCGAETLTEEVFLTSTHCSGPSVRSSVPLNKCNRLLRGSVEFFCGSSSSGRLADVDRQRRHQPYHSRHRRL
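15 min RT preincubation of 1.5 nM cruzain with compound, then 2 uM Z-FR-AMC added; kinetic AMC fluorescence, 60 s delta. Triton X-100 0.01%, pH 5.5.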
Cruzain inh noDet – qHTS Assay for Promiscuous and Specific Inhibitors of Cruzain (without detergent); purified cruzain, Z-FR-AMC fluorescence, no detergent; Potency, µM, for the others: max response, negative = inhibition, usual class: inhibitors; 2.3% of 200,000 active; AID 1476, 2009; active = well fitted curve in the direction sought with a large enough effect; inconclusive = small, poorly fitted or top-dose-only effect, or another doubt; inactive = no such curve, though single readings can be large; an effect the other way counts as inactive or inconclusive;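 also: plate controls were enzyme without inhibitor for no effect and buffer without enzyme for full effect; nearly all actives have a fitted effect of over 40% in size; top concentration of the series not given in the record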
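Purified cruzain at 1.5 nM, pre-incubated 15 min with compound at room temperature in 100 mM sodium acetate pH 5.5, 5 mM DTT, 0.00005% Triton X-100. Reaction started with 2 uM Z-FR-AMC; AMC fluorescence increase over 60 s gives rate.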
MARV entry inh – qHTS for inhibitors of binding or entry into cells for Marburg Virus. AID 540276, 2011. Marburg virus pseudotyped entry inhibition, cell reporter; control for the full effect not named in the record; about a third of the inactives were read at about 46 µM. Potency, µM (doses to about 37.8 µM), for the others: top-dose activity change, negative = inhibition, usual class: inhibitors. 1.8% of 300,000 active; active = well fitted inhibition curve with a large enough effect; inconclusive = small, poorly fitted or top-dose-only effect, or effect the other way; inactive = flat fitted curve, though single readings scatter; tested in HEK293 cells; about a fifth of its hits are not listed in these tables; also: % is scaled to controls: 0 for no effect and ±100 for the full control effect; luciferase read-out
RE007 growth inh – qHTS Assay for Inhibitors of the HIV-1 protein Vpr. 0.21% of 360,000 active. Potency, µM (series often up to 92.2 µM), without a hit: top-dose activity change, negative = less growth. S. pombe RE007 Vpr strain, BacTiter-Glo ATP luminescence, 24 h; control for the full effect not named in the record. AID 651644, 2012; active = well fitted falling curve with a large enough effect; inconclusive = small, poorly fitted or top-dose-only effect; inactive = no such curve, though single readings can be large or run the other way;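 also: % is scaled to controls: 0 for no effect and ±100 for the full control effect; nearly all actives have a fitted effect of over 50% in size; the assay follows cell death caused by Vpr and the record does not say whether a fall means rescue or toxicity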
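Fission yeast strain RE007, carrying one chromosomally integrated HIV-1 vpr copy, was seeded at OD 0.01 in PMG+AL medium with 23 nL pinned compound. After 24 h at 30 °C and 99% humidity, viability was read by BacTiter-Glo luminescence.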
SARS PLpro yeast – qHTS of Yeast-based Assay for SARS-CoV PLP; S. cerevisiae expressing SARS-CoV PLpro, growth rescue; control for the full effect not named in the record; Potency, µM (titrated, usually from 32.9 µM), inactives show top-dose activity, positive = growth rescue; 0.19% of 330,000 active; AID 485353, 2010; also: 0% is about no effect; nearly all actives have a fitted effect of over 55% in size; growth read by luminescence after 48 h
2A StopGo – High Throughput Screening for Foot and Mouth Disease Virus Antivirals | human cells with a luciferase reporter of 2A StopGo recoding; control for the full effect not named in the record | Potency, µM (doses to about 57.9 µM), inactives show top-dose signal change, negative = less light | 1.2% of 410,000 active; active = well fitted falling curve with a large enough effect; inconclusive = small, poorly fitted or top-dose-only effect; inactive = no such curve, though single readings can be large or run the other way; tested in HEK293T cells; also: % is scaled to controls: 0 for no effect and ±100 for the full control effect; nearly all actives have a fitted effect of over 45% in size; luciferase light after 4 h
NS1 function inh – qHTS Assay for Inhibitors of Influenza NS1 Protein Function; Potency, µM (top dose mostly 46.1 µM), for inactives: top-dose activity, positive = more growth; 0.4% of 270,000 active; S. cerevisiae slowed by influenza A NS1, growth recovery by OD600; AID 2326, 2010; also: actives are rising curves; nearly all actives have a fitted effect of over 50% in size
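Growth recovery, yeast-based: influenza A NS1 expressed in S. cerevisiae causes slow growth, and suppressors are detected by OD600. The parent strain without NS1 is used as positive control.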
An asterisk follows results filed as active; u = inconclusive; x = not tested or not shown; & = joins results of further samples; [ ] = remark or other dose. Unless noted, calls follow the shape of the dose curve; as a rule, active means well fitted rising curve with a large enough effect; inconclusive means small, poorly fitted or top-dose-only effect; inactive means no such curve, though single readings can be large or run the other way. Potency is read from the fitted curve at half-maximal effect. Compounds as they come; 4.7% or so of the library scored in one or more.

SMILES	Lassa entry inh	Cruzain Triton	Cruzain inh noDet	MARV entry inh	RE007 growth inh	SARS PLpro yeast	2A StopGo	NS1 function inh
CC(=O)N1c2ccc(S(=O)(=O)NCCC(=O)N3CCCC(C)C3)cc2CC1C (configuration not stated)	x	x	x	x	16%	-4%	19%	2%
CCN(CC)C(=O)N(CC)Cc1ccccc1	x	x	x	x	-6%	1%	-10%	-1%
O=C(c1ccncc1)N1CCN(S(=O)(=O)c2cccc([N+](=O)[O-])c2)CC1	-8%	x	x	-1%	-1%	2%	-10%	x
O=C(Cn1cnc2c(nnn2Cc2ccccc2)c1=O)Nc1ccc2c(c1)OCCO2	x	x	x	x	4%	-7%	-6%	-5%
CC(OC(=O)c1ccc(OCC2CCCO2)cc1)C(=O)N(C)Cc1ccccc1 (configuration not stated)	u	x	x	9%	0%	-4%	-18%	x
CCN(Cc1ccncc1)Cc1ccc(Br)cc1	-5%[46.1 µM]	x	x	11%[46.1 µM]	-17%	0%	-17%	-15%
CNCCCNC(=O)c1ccc(/C=N/O)nc1	10%[46.1 µM]	x	x	u	7%	2%	12%	x
CCn1cc(C(=O)NCCc2ccccc2)c(=O)c2cc(F)c(N3CCN(C)CC3)cc21	5%	-7.7%	-14%	-2%&-13%	15%	4%	24%	3%
Cc1ccc(NC(=O)C(C)OC(=O)c2n[nH]c3ccccc23)cc1 (configuration not stated)	8%	x	x	u	-6%	0%	20%	x
Cc1ccc([N+](=O)[O-])cc1NC1CC(O)C(CO)O1 (configuration not stated)	-3%	-3.6%	-6%	27%	1%	2%	-8%	-2%
O=S(=O)(c1ccc(Cl)cc1Cl)n1ccc2cccnc21	1%[46.1 µM]	x	x	u	19%	4%	4%	4%
COc1ccc2oc(C(=O)OCC(=O)N3CC(C)OC(C)C3)c(C)c2c1 (configuration not stated)	10%[46.1 µM]	x	x	22%[46.1 µM]	-6%	-2%	8%	-4%
O=C(Nc1nnc(-c2ccccc2)s1)c1ccc(F)cc1	-10%[46.1 µM]	x	x	u	-8%	-1%	28%	x
COc1ccc(NC(=O)c2cc(F)cc(F)c2)cc1S(=O)(=O)N1CCCCC1	-29%[46.1 µM]	x	x	u	-5%	0%	-25%	x
CCCCN(C)CCNC(=S)Nc1ccc2nc(N3CCN(CC)CC3)cc(C)c2c1	7.1µM*	x	x	u	-19%	0%	-9%	-1%
COc1ccc(-c2cc(-c3cc(F)ccc3O)[nH]n2)cc1OC	-5%	-14%	0%	u	-12%	-11%	15%	-3%
Cc1cc(F)ccc1S(=O)(=O)NCC(c1cccnc1)N1CCc2ccccc21 (configuration not stated)	x	x	x	x	-1%	-8%	11%	13%
CC(=O)OC(Cn1nc(C)cc1C)c1ccccc1 (configuration not stated)	-11%	2.4%	3%	-5%[46.1 µM]	14%	-9%	-6%	15%
Cc1nnc(SCc2ccon2)n1-c1ccccc1	-2%	-1.7%	11%	1%	1%	-3%	-13%	2%
CCOC(=O)c1c(-c2ccc(C)o2)csc1N	22%	-3.7%	1%	-8%	-20%	2%	-11%	-7%
O=C(CNc1ccccc1Cl)N/N=C1\CCCc2ccccc21	x	x	x	x	-8%	1%	-13%	0%
O=S(=O)(O)c1cccc(N=Nc2c(O)ccc3ccccc23)c1	x	x	x	x	-20%	-1%	-9%	2%
CCN(CC)CCNC(=O)C1c2ccccc2C(=O)N(CCOC)C1c1ccc(F)cc1 (configuration not stated)	-18%	0.9%	10%	-17%	-23%	7%	2%	-6%
CCCOc1ccc(-c2cn3ccccc3n2)cc1[N+](=O)[O-]	u	-14%	2%	u	-29%	-114%	28%	3%
Cc1cccc(-c2nc3ccccc3c(=O)n2-n2cccc2)c1	-19%	1.4%	-5%	-17%	0%	-8%	-29%	2%
CC(=NC1CC1)C1=C(O)c2ccccc2C1=O	4%	-1.5%	-9%	u	-10%	-1%	52%[activator]	-58%
Cc1ccccc1Nc1nc(N)nc(CSc2nnc3sc4ccccc4n23)n1	-22%	-1.7%	-13%	-23%	25%[3.69 µM]	-4%	-27%	23%
CCCc1nc(NC2CCCCC2)c(C#N)c2c1COC(C)(C)C2	u	-14%	-7%	u	-17%	-7%	x	4%
COc1ccc2cc3cc(C(=O)Nc4ccccc4C)oc3nc2c1	4%[46.1 µM]	-1.2%	9%	-15%[46.1 µM]	x	x	-3%	x
O=C(Nc1cc(-c2nc3ncccc3o2)ccc1Cl)c1ccco1	x	x	x	x	-15%	-7%	7%	3%
COc1ccc(/C=N/NC(=O)c2nc(Cl)c(Cl)c(N)c2Cl)cc1COc1ccc(F)cc1F	u	-6.8%	2%	6%	1%	1%	-23%	4%
CSc1ccc(/C=N/n2c(C)nnc2C)cc1	-10%	x	x	0%[46.1 µM]	0%	1%	3%	x
CN(C)Cc1c(O)ccc2c(=O)c(-c3ccccc3Cl)c(C(F)(F)F)oc12	-10%[46.1 µM]	x	x	9%[46.1 µM]	10%	1%	-1%	11%
Fc1ccc(C(c2nnnn2C2CCCCC2)N2CCCC2)cc1 (configuration not stated)	x	x	x	x	-3%	1%	1%	7%
CCOc1ccccc1NC(=S)N1CCN(c2cccc(C)c2C)CC1	x	x	x	x	-18%	-6%	-15%	-56%
COc1ccc(S(=O)(=O)NNC(=O)Cc2csc(C)n2)cc1[N+](=O)[O-]	-3%	x	x	11%[46.1 µM]	-6%	-2%	7%	x
COC(=O)c1cc(NS(=O)(=O)c2ccc(N3CCCCCC3)c([N+](=O)[O-])c2)cc(C(=O)OC)c1	1%	-7.0%	u	3%	2%	-2%	-23%	12%
COc1cc(OC)cc(C(=O)Nc2ccccc2-c2nnn(CC(=O)Nc3cc(C)on3)n2)c1	x	x	x	-30%[46.1 µM]	-4%	0%	u	3%
Cc1ccccc1-c1nnn(CC(=O)N(C)CC(=O)Nc2ccccc2C(F)(F)F)n1	-6%	x	x	11%	2%	-2%	-9%	x
COc1cc(OC)cc(C(=O)NCC(=O)NC(C)CCc2ccccc2)c1 (configuration not stated)	-29%	x	x	u	-7%	5%	1%	-1%
CN1N=C(c2ccc(F)c(F)c2)CSC1=NCc1ccccc1	-3%	x	x	-2%[46.1 µM]	-6%	-2%	9%	x
Cc1cc(=O)oc2cc(OCC(=O)N3CCC(O)CC3)c(Cl)cc12	x	x	x	x	-7%	0%	10%	0%
O=C(c1ccc(S(=O)(=O)Nc2cccc(C(F)(F)F)c2)cc1)N1CCN(c2ccccc2O)CC1	1%	x	x	u	-16%	-1%	u	x
CC1CCC2(CC1)NC(=O)N(CC(=O)Nc1ccccc1-c1ccccc1)C2=O (configuration not stated)	-27%[46.1 µM]	x	x	-2%[46.1 µM]	2%	1%	26%	x
CCCN(C(=O)c1cc2c(=O)oc3ccccc3c2s1)c1cccc(Cl)c1	u	1.2%	2%	20%[46.1 µM]	x	x	-4%	x
CC(C)CC(NC(=O)OC(C)(C)C)c1cn([C@@H](Cc2ccc(O)cc2)C(=O)N2CCN(C(=O)OC(C)(C)C)CC2)nn1 (some centres not stated)	x	x	x	x	-7%	1%	-5%	0%
CCC(=O)Nc1c2c(nn1-c1ccc([N+](=O)[O-])cc1)CS(=O)(=O)C2	x	x	x	x	13%	-2%	-16%	-1%
COc1ccc(-c2cc(C(F)(F)F)n3nc(C(=O)Nc4c(C)n(C)n(-c5ccccc5)c4=O)cc3n2)cc1	-5%	x	x	0%[46.1 µM]	-7%	0%	1%	5%
CCCCNC(=S)N(CCO)Cc1cc2cc3c(cc2[nH]c1=O)OCCO3	x	x	x	x	2%	0%	3%	7%
O=C(NC(=S)NCCN1CCOCC1)c1ccc(Cl)cc1Cl	4%	2.4%	3%	7%[46.1 µM]	-10%	9%	-16%	2%

Next section.
SMILES	Lassa entry inh	Cruzain Triton	Cruzain inh noDet	MARV entry inh	RE007 growth inh	SARS PLpro yeast	2A StopGo	NS1 function inh
O=C(CN1C(=O)NC2(CCCCC2)C1=O)Nc1ccc(N2CCOCC2)cc1	13%	-1.3%	0%	u	8%	-3%	-2%	11%
C=CCn1c(O)c(/C(C)=N/N2CCCCCC2)c(=O)[nH]c1=O	-25%	x	x	-5%	8%	1%	-25%	3%
CC(C)c1ccc(C(=O)NCCCc2ccccc2)cc1	u	-2.1%	1%	u	-12%	5%	64%[activator]	-97%
O=C(NC1CCCC1)C(=O)c1c[nH]c2ccccc12	u	x	x	18%[46.1 µM]	-9%	-2%	32%[activator]	-13%
COCCNc1oc(/C=C/c2ccccc2OC)nc1S(=O)(=O)c1ccccc1	x	x	x	x	7%	-1%	-19%	29%
CCN1C(=O)/C(=C\C=C\c2ccccc2[N+](=O)[O-])SC1=S	u	x	x	-6%[46.1 µM]	7%	-3%	12%	x
COc1ccc(CNC(=O)c2ccc3ccccc3n2)cc1	x	x	x	x	-10%	-8%	41%[activator]	-23%
CC(=O)c1ccc(OCCOc2ccc(C#N)cc2)cc1	x	x	x	x	-5%	-2%	-11%	-6%
Cc1ccccc1CSc1nncn1N	-10%	-1.6%	-2%	12%	-2%	11%	-3%	2%
COc1ccc(-c2oc3ccccc3c2C(=O)OCc2ccc(O)cc2)cc1	x	x	x	x	-8%	2%	-11%	0%
CCC(C)Sc1nnc(NS(=O)(=O)Cc2ccccc2)s1 (configuration not stated)	x	x	x	x	6%	3%	52%[activator]	u
CCOC(=O)c1sc(=NC(=O)c2cccc(Br)c2)n(C)c1C	u	x	x	-27%[46.1 µM]	6%	-3%	48%[activator]	-2%
CCOc1cccc(C=NNc2ccc(S(=O)(=O)Nc3ccccc3C(=O)O)cc2[N+](=O)[O-])c1O	3%[46.1 µM]	x	x	-6%[46.1 µM]	-13%	0%	13%	x
Cc1onc(-c2ccccc2)c1C(=O)NCc1cccnc1	8%	4.1%	4%	1%	2%	0%	28%	-8%
Cc1ccc(CNC(=O)NC2CCCCC2)cc1	-24%	-4.7%	-6%	17%	14%	0%	65%[activator]	0%
Cc1ccc(C)c(CN2C(=O)c3ccccc3Sc3ccc(C(=O)N4CCC5(CC4)OCCO5)cc32)c1	u	0.5%	u	x	x	x	-9%	x
